Compound activity deposited in PubChem by Broad Institute.
UUG fidelity: modulators of start codon recognition fidelity in yeast. S. cerevisiae UUG-firefly luciferase reporter, luminescence/redox ratio. activity score, % at 18.7 µM. 350,000 compounds, 0.13% hits. AID 602363;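 active = replicate mean at a twofold rise or more, about +100% in these data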;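 note: firefly luciferase made from a UUG start codon reports start codon fidelity; reporter light over untreated wells divided by growth signal over untreated wells; some hits fall short of that in this replicate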
Env fusion inh: HIV envelope-mediated fusion inhibition | HeLa-JRFL Env/CEM21 cell fusion, luciferase | inhibition, % at 12.3 µM | 360,000 compounds, 1.1% hits | AID 651610;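 active = mean replicate inhibition score of at least 50 and every replicate individually at or above 50; inconclusive = only one of the two criteria met; inactive = mean below 50 and not all replicates reaching 50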;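 note: 0% = plate neutral controls and 100% = maraviroc near 300 nM; one replicate is shown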
* = called active by the depositor; ? = inconclusive; [ ] = dose if it differs, or a comment.

Each structure is followed by: UUG fidelity	Env fusion inh
1. Cc1noc(C)c1NC(=O)N(C)C[C@@H]1Oc2c(NC(=O)Nc3ccccc3)cccc2C(=O)N([C@H](C)CO)C[C@@H]1C
    -4	-17[16.7 µM]
2. C[C@@H]1CN([C@H](C)CO)C(=O)c2cccc(NS(=O)(=O)c3ccc(F)cc3)c2O[C@@H]1CN(C)S(=O)(=O)c1ccc(Cl)cc1
    -1	13[16.7 µM]
3. CN(C)C(=O)C[C@H]1CC[C@H](NC(=O)NC2CCCC2)[C@H](CO)O1
    -12	17[16.7 µM]
4. C[C@H]1CN([C@@H](C)CO)C(=O)c2cc(/C=C/c3ccccc3)cnc2O[C@H]1CN(C)S(=O)(=O)c1cccs1
    -11	11[16.7 µM]
5. C[C@@H]1CN([C@H](C)CO)C(=O)c2cc(NC(=O)NC3CCCCC3)ccc2O[C@H]1CN(C)Cc1ccc(-c2ccccc2)cc1
    21	41[16.7 µM]
6. CN(C)Cc1cn(CC[C@H]2CC[C@H](NC(=O)Nc3ccccc3F)[C@@H](CO)O2)nn1
    -6	-4[16.7 µM]
7. C[C@H](CO)N1C[C@H](C)[C@@H](CN(C)C(=O)Nc2cccc(F)c2)OCc2cn(nn2)CCCC1=O
    3	-20
8. CC(C)CC#Cc1cnc2c(c1)C(=O)N([C@H](C)CO)C[C@H](C)[C@H](CN(C)S(=O)(=O)c1cccs1)O2
    -3	11[16.7 µM]
9. COc1ccc(S(=O)(=O)Nc2ccc3c(c2)C(=O)N([C@H](C)CO)C[C@@H](C)[C@@H](CN(C)C(=O)CCCN(C)C)OCCCC[C@@H](C)O3)cc1
    -4	8[16.7 µM]
10. C[C@H]1CCCCO[C@H](CN(C)C(=O)CCC(F)(F)F)[C@@H](C)CN([C@@H](C)CO)C(=O)c2cc(NC(=O)Cc3ccccc3)ccc2O1
    25	?
11. C[C@@H]1CN([C@H](C)CO)C(=O)c2cc(C#CCN(C)C)cnc2O[C@@H]1CN(C)Cc1cccc(F)c1
    1	26[16.7 µM]
12. O=C(CCN1CCCCC1)N[C@H]1CC[C@@H](CCNS(=O)(=O)c2ccccc2)O[C@@H]1CO
    1	5[16.7 µM]
13. C/C=C/c1cnc2c(c1)C(=O)N([C@@H](C)CO)C[C@H](C)[C@H](CN(C)C(=O)NC1CCCCC1)O2
    2	-12[16.7 µM]
14. CCNC(=O)C[C@H]1C=C[C@H](NS(=O)(=O)c2ccc(F)cc2)[C@H](CO)O1
    -12	2[16.7 µM]
15. C[C@@H]1CN([C@H](C)CO)C(=O)Cc2cc(NC(=O)CCN3CCOCC3)ccc2O[C@@H]1CN(C)CC1CCCCC1
    -2	16[16.7 µM]
16. C[C@@H]1CN([C@H](C)CO)S(=O)(=O)c2ccc(-c3ccccc3)cc2O[C@H]1CN(C)Cc1cccnc1
    -8	8[16.7 µM]
17. C[C@@H]1CCCCO[C@@H](CN(C)C(=O)Nc2cccc3ccccc23)[C@H](C)CN([C@@H](C)CO)C(=O)c2cc(NC(=O)CCCN(C)C)ccc2O1
    5	5[16.7 µM]
18. CN1C(=O)c2cc(NC(=O)Nc3ccccc3)ccc2OC[C@H]2O[C@@H](CC(=O)NC3CCC3)CC[C@H]21
    -5	17[16.7 µM]
19. Cc1ccc(S(=O)(=O)Nc2ccc3c(c2)C(=O)N([C@@H](C)CO)C[C@@H](C)[C@@H](CN(C)C(=O)Nc2cccc4ccccc24)OCCCC[C@H](C)O3)cc1
    -1	24[16.7 µM]
20. C[C@H](CO)N1C[C@H](C)[C@H](CN(C)C)Oc2cc(-c3cccnc3)ccc2S1(=O)=O
    -16	-6[16.7 µM]
21. C[C@@H]1CN([C@H](C)CO)C(=O)c2cc(C3=CCCCC3)cnc2O[C@H]1CN(C)C(=O)Nc1ccccc1
    3	-34[16.7 µM]
22. Cc1ccc(S(=O)(=O)N[C@H]2CC[C@H](CCNC(=O)c3ccc4c(c3)OCO4)O[C@H]2CO)cc1
    1	-1[16.7 µM]
23. O=C(C[C@@H]1C[C@@H]2c3cc(NC(=O)Nc4ccccc4F)ccc3O[C@@H]2[C@H](CO)O1)NCC1CC1
    -4	21[16.7 µM]
24. COc1ccccc1S(=O)(=O)N[C@@H]1CC[C@@H](CCNC(=O)C2CC2)O[C@@H]1CO
    -5	7[16.7 µM]
25. CNC[C@@H]1Oc2cc(-c3ccc(C)cc3)ccc2S(=O)(=O)N([C@@H](C)CO)C[C@H]1C
    4	3[16.7 µM]
26. C[C@@H]1CN([C@@H](C)CO)C(=O)c2cc(-c3ccccc3)cnc2O[C@H]1CN(C)Cc1ccc(C(=O)O)cc1
    12	-6[16.7 µM]
27. COc1ccc(CN2C[C@@H](O)COC[C@H]3O[C@H](CC(=O)NCCN4CCCC4)CC[C@@H]32)cc1
    5	3[16.7 µM]
28. C/C=C/c1cnc2c(c1)C(=O)N([C@H](C)CO)C[C@@H](C)[C@H](CN(C)S(=O)(=O)c1ccccc1)O2
    3	5[16.7 µM]
29. COc1ccc(S(=O)(=O)N(C)C[C@@H]2Oc3ccc(NC(=O)CCCCCC(=O)Nc4ccccc4N)cc3CC(=O)N([C@H](C)CO)C[C@H]2C)cc1
    10	11[16.7 µM]
30. Cc1noc(C)c1NC(=O)N(C)C[C@H]1OCc2cn(nn2)CCCC(=O)N([C@H](C)CO)C[C@@H]1C
    -5	16

Some of these compounds in order of the UUG fidelity value, lowest first:
Each structure is followed by: UUG fidelity	Env fusion inh
3. CN(C)C(=O)C[C@H]1CC[C@H](NC(=O)NC2CCCC2)[C@H](CO)O1
    -12	17[16.7 µM]
16. C[C@@H]1CN([C@H](C)CO)S(=O)(=O)c2ccc(-c3ccccc3)cc2O[C@H]1CN(C)Cc1cccnc1
    -8	8[16.7 µM]
24. COc1ccccc1S(=O)(=O)N[C@@H]1CC[C@@H](CCNC(=O)C2CC2)O[C@@H]1CO
    -5	7[16.7 µM]
15. C[C@@H]1CN([C@H](C)CO)C(=O)Cc2cc(NC(=O)CCN3CCOCC3)ccc2O[C@@H]1CN(C)CC1CCCCC1
    -2	16[16.7 µM]
12. O=C(CCN1CCCCC1)N[C@H]1CC[C@@H](CCNS(=O)(=O)c2ccccc2)O[C@@H]1CO
    1	5[16.7 µM]

Following part:
Each structure is followed by: UUG fidelity	Env fusion inh
31. Cc1noc(C)c1S(=O)(=O)Nc1ccc2c(c1)C(=O)N([C@@H](C)CO)C[C@@H](C)[C@@H](CN(C)C(=O)NC1CCCCC1)OCCCC[C@@H](C)O2
    14	-38[16.7 µM]
32. COCC(=O)N(C)C[C@@H]1Oc2cc(-c3cccnc3)ccc2S(=O)(=O)N([C@@H](C)CO)C[C@H]1C
    7	-27[16.7 µM]
33. CN1C(=O)c2cc(NC(=O)c3ccc(F)cc3)ccc2OC[C@@H]2O[C@@H](CC(=O)NCC3CC3)CC[C@H]21
    -15	-4[16.7 µM]
34. COc1ccc(S(=O)(=O)N(C)C[C@@H]2OCCCC[C@@H](C)Oc3ccc(NS(=O)(=O)c4ccc(F)cc4)cc3C(=O)N([C@H](C)CO)C[C@@H]2C)cc1
    -4	6[16.7 µM]
35. Cc1cc(C(=O)Nc2ccc3c(c2)C(=O)N(C)[C@@H]2CC[C@@H](CC(=O)NCC(F)(F)F)O[C@H]2CO3)no1
    -8	-15[16.7 µM]
36. C[C@@H]1CCCCO[C@H](CN(C)S(=O)(=O)c2ccc(Cl)cc2)[C@H](C)CN([C@H](C)CO)C(=O)c2cc(NC(=O)CCC(F)(F)F)ccc2O1
    2	18[16.7 µM]
37. COc1ccc(S(=O)(=O)N(C)C[C@@H]2OCCCC[C@@H](C)Oc3ccc(NC(=O)Nc4c(C)noc4C)cc3C(=O)N([C@@H](C)CO)C[C@@H]2C)cc1
    22	5[16.7 µM]
38. CO[C@@H]1CN(C)C(=O)c2cc(NS(=O)(=O)c3ccc(C)cc3)ccc2OC[C@H](C)NC[C@@H]1C
    -7	3[16.7 µM]
39. C[C@H]1CN([C@@H](C)CO)C(=O)c2cc(C3=CCCCC3)cnc2O[C@H]1CN(C)Cc1cccnc1
    -2	-34[16.7 µM]
40. C[C@@H]1CN([C@@H](C)CO)C(=O)Cc2cc(NC(=O)Cn3cnnn3)ccc2O[C@@H]1CN(C)Cc1ccccc1
    -6	2[16.7 µM]
41. CCCN(C)C[C@H]1OCCCC[C@@H](C)Oc2ccc(NS(=O)(=O)c3cn(C)cn3)cc2C(=O)N([C@@H](C)CO)C[C@@H]1C
    9	4[16.7 µM]
42. COc1ccc(S(=O)(=O)N(C)C[C@@H]2Oc3ccc(NC(=O)Nc4c(C)noc4C)cc3CC(=O)N([C@@H](C)CO)C[C@H]2C)cc1
    2	-2[16.7 µM]
43. Cc1noc(C)c1NC(=O)N(C)C[C@H]1OCCCC[C@H](C)Oc2ccc(NC(=O)C3CCCCC3)cc2C(=O)N([C@H](C)CO)C[C@@H]1C
    -10	-21[16.7 µM]
44. Cc1noc(C)c1NC(=O)N(C)C[C@H]1Oc2c(NS(C)(=O)=O)cccc2C(=O)N([C@H](C)CO)C[C@H]1C
    -15	8[16.7 µM]
45. O=C(C[C@H]1C[C@@H]2c3cc(NS(=O)(=O)c4ccc(F)cc4)ccc3O[C@@H]2[C@H](CO)O1)N1CCCCC1
    39	9[16.7 µM]
46. O=C(C[C@@H]1C[C@@H]2c3cc(NC(=O)C4CCC4)ccc3O[C@@H]2[C@H](CO)O1)NCC1CC1
    -7	0[16.7 µM]
47. CC(C)NC(=O)N(C)C[C@@H]1OCCCC[C@@H](C)Oc2ccc(NC(=O)c3ccncc3)cc2C(=O)N([C@@H](C)CO)C[C@H]1C
    0	12[16.7 µM]
48. COc1ccc(CN(C)C[C@@H]2Oc3ccc(NC(=O)Nc4ccc5c(c4)OCO5)cc3C(=O)N([C@@H](C)CO)C[C@H]2C)cc1
    15	-4[16.7 µM]
49. CN(C)C(=O)C[C@@H]1CC[C@H](NC(=O)NC2CCCC2)[C@@H](CO)O1
    2	-3[16.7 µM]
50. Cc1ccc(S(=O)(=O)N(C)C[C@H]2OCCCC[C@H](C)Oc3ccc(NC(=O)Nc4cccc5ccccc45)cc3C(=O)N([C@@H](C)CO)C[C@@H]2C)cc1
    -7	-49[16.7 µM]
51. O=C(NCC[C@@H]1CC[C@H](NS(=O)(=O)c2ccc(Oc3ccccc3)cc2)[C@@H](CO)O1)C1CC1
    7	-10[16.7 µM]
52. COc1ccc(NC(=O)Nc2ccc3c(c2)CC(=O)N([C@@H](C)CO)C[C@H](C)[C@@H](CN(C)Cc2ccc(Oc4ccccc4)cc2)O3)cc1
    15	-8[16.7 µM]
53. COc1cccc(-c2cnc3c(c2)C(=O)N([C@@H](C)CO)C[C@H](C)[C@@H](CN(C)Cc2ccc(C(=O)O)cc2)O3)c1
    7	-1[16.7 µM]
54. CN1CCN(C(=O)C[C@@H]2CC[C@H](NC(=O)Nc3ccccc3F)[C@@H](CO)O2)CC1
    6	0[16.7 µM]
55. C[C@H]1CN([C@@H](C)CO)C(=O)c2cc(C#CC3CC3)cnc2O[C@H]1CN(C)S(C)(=O)=O
    -12	-7[16.7 µM]
56. C[C@@H]1CN([C@H](C)CO)S(=O)(=O)c2ccc(Br)cc2O[C@H]1CN(C)Cc1cncnc1
    21	-47[16.7 µM]
57. CC(C)NC(=O)Nc1ccc2c(c1)C(=O)N([C@@H](C)CO)C[C@@H](C)[C@@H](CN(C)C(=O)Nc1ccc3c(c1)OCO3)OCCCC[C@@H](C)O2
    5	25[16.7 µM]
58. CCC(=O)N(C)C[C@H]1Oc2cc(C#C[C@@H](C)O)ccc2S(=O)(=O)N([C@H](C)CO)C[C@H]1C
    4	-2[16.7 µM]
59. COc1cccc(NC(=O)C[C@@H]2CC[C@H]3[C@H](COc4ccc(NC(=O)C5CCCCC5)cc4C(=O)N3C)O2)c1
    -8	15[16.7 µM]
60. C[C@H](CO)N1C[C@H](C)[C@@H](CN(C)C(=O)Nc2ccccc2)Oc2ncc(C#CC3CCCC3)cc2C1=O
    30	-7[16.7 µM]
61. Cc1ccc(F)cc1S(=O)(=O)N[C@@H]1CCN(Cc2ccc(OC(C)C)cc2)C1
    7	0[16.7 µM]
62. C[C@H]1CN([C@@H](C)CO)C(=O)c2cc(C#CCN(C)C)cnc2O[C@H]1CN(C)C(=O)c1ccc(F)cc1
    -2	-50[16.7 µM]
63. COc1ccc(-c2ccc([C@H]3[C@H](CO)N[C@@H]3C#N)cc2)cc1
    -7	9[16.7 µM]
64. COc1ccc([Si](C)(C)[C@@H]2[C@@H](CCn3cc([C@H](O)c4ccccc4)nn3)O[C@]3(C(=O)N(Cc4ccc(N5CCC5=O)cc4)c4ccccc43)[C@H]2C)cc1
    -9	12[16.7 µM]
65. CN(C)C(=O)c1ccc(-c2ccc([C@H]3[C@H](C#N)N(C(=O)C4CCC4)[C@H]3CO)cc2)cc1
    0	-8[16.7 µM]
66. COCC(=O)Nc1ccc2c(c1)[C@H]1C[C@H](CC(=O)NCc3ccccn3)O[C@H](CO)[C@H]1O2
    -21	12[16.7 µM]
67. CC(C)C#Cc1ccc2c(c1)O[C@@H](CN(C)C(=O)c1cnccn1)[C@@H](C)CN([C@H](C)CO)S2(=O)=O
    -1	9[16.7 µM]
68. COc1ccc(S(=O)(=O)Nc2ccc3c(c2)C(=O)N([C@H](C)CO)C[C@H](C)[C@H](CN(C)C(=O)Nc2ccc(C(F)(F)F)cc2)O3)cc1
    -2	27[16.7 µM]
69. C[C@H]1CN([C@@H](C)CO)C(=O)Cc2cc(NC(=O)Nc3cccc4ccccc34)ccc2O[C@@H]1CN(C)S(=O)(=O)c1ccccc1
    -20	10[16.7 µM]

A portion of the library. The share of hits here may be higher or lower than overall.
